miR-21 reporter: qHTS Assay for Modulators of miRNAs and/orActivators of miR-21; HeLa miR-21 FLuc reporter, luciferase, 48 h; Potency, µM (series often up to 38.3 µM), for inactives: at the top dose reporter change, positive = more light; 340,000 tested, under 10 active; AID 2288, 2010; active = well fitted rising curve with a large enough effect; inconclusive = small, poorly fitted or top-dose-only effect; inactive = no such curve, though single readings can be large or run the other way;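 also: % of control where 0% means no effect; miR-21 action dims this reporter so a rising signal means less miR-21 action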
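HeLa miR-21-FLuc reporter line, endogenous miR-21; 2000 cells/well in DMEM/10% FBS; compound titration up to ~40uM final, 48 h, 37 degree Celsius; luciferase detection reagent, 15 min lysis, CCD luminescence.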
Rango complex inh: qHTS Assay for Inhibitors of Rango (Ran-regulated importin-beta cargo) - Importin beta complex formation; Rango CFP/YFP FRET sensor + importin beta, 45 min; hit rate 0.031% among 340,000; Importin subunit beta-1 (Homo sapiens), Q14974; AID 540263, 2011; Potency, µM (highest dose often 92.2 µM), for inactives: top-dose inhibition of complex formation; active = rising FRET ratio curve, often small or poorly fitted; inconclusive = mostly compound fluorescence or quenching in the first reads; inactive = flat curves in all reads;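 also: potency is read from the fitted curve at half-maximal effect; 0% = DMSO wells and 100% = buffer wells lacking importin beta; nearly all actives have a fitted effect of over 15% in size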
Target sequence (Q14974 whole entry, looked up): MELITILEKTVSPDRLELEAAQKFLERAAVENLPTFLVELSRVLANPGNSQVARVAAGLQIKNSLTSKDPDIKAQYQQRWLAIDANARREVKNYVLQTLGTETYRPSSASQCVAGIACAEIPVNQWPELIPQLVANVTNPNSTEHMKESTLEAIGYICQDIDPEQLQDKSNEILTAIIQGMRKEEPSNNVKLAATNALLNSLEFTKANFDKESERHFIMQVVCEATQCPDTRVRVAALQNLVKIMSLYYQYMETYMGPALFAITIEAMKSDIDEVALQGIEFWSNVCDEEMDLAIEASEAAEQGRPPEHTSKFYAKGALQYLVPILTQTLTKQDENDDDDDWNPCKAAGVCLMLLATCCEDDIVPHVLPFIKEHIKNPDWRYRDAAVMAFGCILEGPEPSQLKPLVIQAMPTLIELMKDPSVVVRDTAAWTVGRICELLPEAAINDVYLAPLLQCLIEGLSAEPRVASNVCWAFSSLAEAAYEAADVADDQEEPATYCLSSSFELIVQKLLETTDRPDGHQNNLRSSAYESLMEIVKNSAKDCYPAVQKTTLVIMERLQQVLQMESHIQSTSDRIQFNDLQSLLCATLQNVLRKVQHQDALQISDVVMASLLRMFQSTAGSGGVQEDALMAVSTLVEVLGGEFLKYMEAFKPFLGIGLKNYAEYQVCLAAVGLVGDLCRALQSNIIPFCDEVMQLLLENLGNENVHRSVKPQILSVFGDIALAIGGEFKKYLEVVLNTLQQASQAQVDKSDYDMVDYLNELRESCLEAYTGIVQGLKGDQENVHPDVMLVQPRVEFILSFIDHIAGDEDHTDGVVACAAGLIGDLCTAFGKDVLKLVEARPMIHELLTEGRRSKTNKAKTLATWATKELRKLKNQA
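Inhibition scored from the CFP 486 nm/YFP 530 nm FRET ratio 45 min after adding 0.125 microM importin beta to 50 nM Rango biosensor preincubated 5 min with compound (room temperature, PBS with DTT, Tween-20, BSA). No-importin wells as positive control.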
Rango release inh: qHTS Assay for Inhibitors of RanGTP induced Rango (Ran-regulated importin-beta cargo) - Importin beta complex dissociation | Biochemical FRET Rango-importin beta, RanGTP-induced dissociation | Potency, µM (top dose mostly 46.1 µM), for the others: top-dose activity change, negative = inhibition | hit rate 0.071% among 340,000 | AID 540253, 2011; active means falling FRET ratio curve, often poorly fitted, with flat reads before Ran was added; inconclusive means other falling curves, or compound fluorescence or quenching; inactive means flat or rising ratio curve;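 also: potency is read from the fitted curve at half-maximal effect; % of control where 0% means no effect; nearly all actives have a fitted effect of over 45% in size; -100% = wells without RanGTP and RCC1; the record marks most hits as doubtful in a second field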
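Rango/importin beta premix (0.1/0.25 uM final), PBS + 1 mM DTT + 0.02% Tween-20 + 0.1% BSA; cpd 5 min RT; FRET pre-read; + RanGTP-RCC1 (0.6 uM Ran, 2 mM GTP, 0.2 uM RCC1); 45 min RT; FRET post-read, ex 430, em 486/530 nm.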
GLA inh pH 4.5: qHTS Assay for Inhibitors of Human alpha-Galactosidase at pH 4.5. purified enzyme, 4-MU-alpha-Gal fluorescence, pH 4.5. activity change, negative = inhibition, % at 105 µM. 230,000 tested, under 10 active; inconclusive = small, poorly fitted or top-dose-only inhibition, or a rising curve; inactive = flat fitted curve, though single readings scatter; no compound was filed as active;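 also: 0% = full activity with enzyme and -100% = basal without enzyme; dose as in the result columns while the protocol names 77 µM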
* = called active by the depositor; ? = inconclusive; nt = no result given; & = joins results of further samples. An excerpt. The share of hits here may be higher or lower than overall.

Under each structure – miR-21 reporter, Rango complex inh, Rango release inh, GLA inh pH 4.5
- CCOC(=O)C1=C(C)N=C2SCCC(=O)N2[C@@H]1/C=C/c1ccccc1
    -5%, -2.4%, 16%, -2
- COc1cc2nc(SCC(=O)NCc3ccco3)n(Cc3ccc(Cl)cc3)c(=O)c2cc1OC
    1%, 1.4%, -3%, -5
- COCCN(C(=O)COC(=O)C(c1ccccc1)c1ccccc1)c1c(N)n(Cc2ccccc2)c(=O)[nH]c1=O
    nt, 1.4%, -1%, nt
- CCCCNC(=O)N1CCN(c2ccccc2OCC)CC1
    -4%, 0.8%, 15%, -14
- Cc1ccc[n+](-c2[nH]c(=O)sc2/C=N/NC(=O)c2ccccc2[O-])c1
    2%, 3.4%, -12%, -5
- COc1cccc(C(=O)Nc2ccc3c(c2)C(=O)c2ccccc2C3=O)c1
    -64%, -1.4%, -8%, -2
- CC1CCN(c2nc(N3CCCCC3)nc(N3CCCCC3)n2)CC1
    -1%, -3.3%, 10%, 5
- C[C@H](O)C(=O)C1=Nc2c(nc(N)[nH]c2=O)NC1
    nt, ?, -24%, -2
- Cc1cccc(Cl)c1NC(=S)NN
    -3%, -0.1%, -8%, -3
- CC(C)(CNC(=O)c1cccc(S(=O)(=O)NCc2ccccc2)c1)N1CCOCC1
    nt, -1.0%, 19%, nt
- CCC(C)Sc1ccc(-c2nc3ccc(Cl)cn3c2NCc2ccccc2)cc1 (stereo not given)
    nt, ?, ?, nt
- CCN(C[C@H]1N[C@@](CC)(C(=O)OC)[C@H]2C(=O)N(C)C(=O)[C@@H]12)C(=O)Nc1ccc(OC)cc1
    nt, -3.1%, 3%, nt
- CC12CCC(=O)N1C(C(=O)N1CCN(c3cccc(Cl)c3)CC1)CS2 (stereo not given)
    nt, -2.7%, -20%, nt
- COc1ccccc1/C=C/C(=O)OCC(=O)Nc1ccc(Cl)cn1
    4%, 1.3%, 1%, -6
- COc1ccccc1C(=O)NCC(=O)OC(C)C(=O)N(C)C1CCCCC1 (stereo not given)
    nt, 1.1%, 7%, nt
- CCOC(=O)c1cnc(-n2nc(C)cc2C)nc1NNc1cc(C)nc(-c2ccccc2)n1
    -6%, 1.2%, -4%, -5
- COc1ccc(NC(=O)/C(=C\c2cc(OC)c(OC)cc2[N+](=O)[O-])NC(=O)c2ccccc2)cc1
    -12%, 3.5%, -8%, -5
- O=C(OCC(=O)N(C1CCCCC1)C1CCCCC1)c1ccc(Cl)nc1
    nt, -0.2%, 11%, nt
- COCCn1c(C)cc(C(=O)COC(=O)/C=C/c2c(C)nn(C3CCS(=O)(=O)C3)c2Cl)c1C (stereo not given)
    nt, -3.1%, -9%, nt
- Cc1cc(NCc2cccnc2)nc(N)n1
    0%, 2.7%, 2%, nt
- O=C(COc1ccccc1Cl)Nc1cccnc1
    -63%, 0.7%, -13%, 4
- CSc1ccccc1NC(=O)CN(c1ccccc1)S(=O)(=O)N(C)C
    -6%, 0.0%, 3%, 3
- NS(=O)(=O)c1cccc(NC(=O)c2cc(-c3cccs3)nc3ccccc23)c1
    15%, -0.6%, 1%, 1
- Cc1ccc(C(=O)NC(=S)N2CCCCCC2)cc1
    nt, -3.5%, -19%, nt
- COC(=O)c1ccccc1NC(=O)CN(c1c(C)cccc1C)S(C)(=O)=O
    0%, 1.8%, 11%, nt
- Cn1cc(Br)c(C(=O)NNC(=O)c2cccc(Br)c2)n1
    -27%, -1.2%, 3%, -27
- NC1=C([N+](=O)[O-])C(c2ccc3c(c2)OCO3)C2=C(CCCC2=O)O1 (stereo not given)
    1%, -0.3%, -10%, nt
- O=C(Nc1ccccc1)N1CCN(c2ccc(C(F)(F)F)cn2)CC1
    14%, 0.2%, 0%, 4
- O=C(COC(=O)CC1c2ccccc2CCN1S(=O)(=O)c1ccccc1)Nc1ccccc1 (stereo not given)
    -9%, 3.9%, 19%, -1
- Cc1ccc(-n2nnnc2SCC(=O)N2CCN(C(=O)c3ccco3)CC2)c(C)c1
    2%, -3.1%, 3%, -1
- S=C(NC1CC1)N1CCN(c2ccc(Cl)cc2)CC1
    0%, -0.8%, -7%, -9
- Cc1noc(C)c1S(=O)(=O)N1Cc2ccccc2CC1C(=O)N(C)C (stereo not given)
    0%, -1.3%, -5%, nt
- Cc1[nH]c2ccccc2c1NC(=O)CN1CCN(c2cccc(C(F)(F)F)c2)CC1
    13%, 0.7%, -18%, -5
- COc1cccc2c(C)nc(Nc3nc(CSc4nnc(C)s4)cc(=O)[nH]3)nc12
    -5%, -0.7%, 8%, -8
- C/C(N)=C(/C#N)C(=O)CSc1nc2ccccc2c(=O)n1-c1ccccc1C
    -23%, 1.5%, 9%, 3
- CC(=O)NC12CC3CC(C1)CC(C(=O)Nc1cccc(S(=O)(=O)N4CCCCCC4)c1)(C3)C2
    nt, 0.3%, 1%, nt
- CC(=O)OCc1c(-c2ccccc2)c2cc([N+](=O)[O-])ccc2n1C
    7%, -5.3%, 0%, nt
- CC(C(=O)NCc1ccco1)n1cc(C(=O)c2ccco2)c2ccccc21 (stereo not given)
    -5%, -3.6%, -4%, -4
- Cc1noc(C)c1COc1ccccc1C(=O)Nc1ccc(C(N)=O)cc1
    nt, -3.0%, 2%, nt
- O=C(Nc1ccc(Cl)cc1F)C1CCCN(C2=NS(=O)(=O)c3ccccc32)C1 (stereo not given)
    nt, 6.2%, 15%, nt
- CC(C(=O)NCc1ccc(F)cc1)c1ccc([N+](=O)[O-])cc1 (stereo not given)
    0%, -1.3%, -13%, 7
- CC(=O)c1cccc(NC(=O)c2ccccc2OCc2ccc(F)cc2)c1
    4%, -0.6%, -1%, nt
- COc1ccc(NC(=S)NC(C)c2ccncc2)cc1OC (stereo not given)
    0%, -1.1%, 0%, 10
- CCCCNC(=O)c1cc(S(=O)(=O)N2CCCCC2)oc1C
    7%, 3.2%, -1%, nt
- Cc1cc(C)nc(NS(=O)(=O)c2ccc(NC(=O)NC3CCCCC3)cc2)n1
    -11%, 12%, 10%, -9
- CC1CN(C(=O)CN(C)S(=O)(=O)c2ccc3ccccc3c2)CC(C)O1 (stereo not given)
    4%, -2.4%, -16%, nt
- O=C(NCCc1ccccc1)C(=O)NCC1CCCN1S(=O)(=O)c1ccccc1 (stereo not given)
    nt, -6.3%, -1%, nt
- CC(C)(C)n1nnnc1C(c1cccnc1)N1CCN(c2ccccc2F)CC1 (stereo not given)
    7%, -3.4%, -7%, -19
- COc1ccc(-n2nc(C(=O)NCC(=O)N3CCC(C(N)=O)CC3)c3ccccc3c2=O)cc1OC
    2%, -0.8%, -4%, nt
- COC(=O)c1cc(OC)c(OC)cc1NC(=O)CN1C(=O)c2ccccc2C1=O
    -3%, -1.2%, 0%, nt
- O=c1c2ccccc2c(-c2ccc(Br)cc2)nn1Cc1ccccc1
    -2%, 0.3%, 0%, -4
- O=C(CN1CCN(c2ncccn2)CC1)NCCC1=CCCCC1
    -21%, 4.1%, -12%, -9
- CCOCCCNC(=O)CSCc1nc(-c2ccc(SC)cc2)oc1C
    15%, -0.1%, 3%, -3
- Cc1ccc(-c2noc(CSc3nnc(-c4ccncc4)n3-c3ccc(C)cc3)n2)cc1
    4%, -2.1%, -1%, 0
- COc1cc(Br)cc(/C=N/NC(=O)Cc2ccc(C(F)(F)F)cc2[N+](=O)[O-])c1O
    -3%, -0.4%, 5%, -1
- CNC(=O)CSc1n[nH]c(-c2cc(Cl)ccc2OC)n1
    3%, -2.7%, 6%, 3
- COc1ccc(-c2cc(CNC(=O)CCl)on2)cc1
    30%, -0.8%, 2%, -5
- Cc1noc(C)c1COC(=O)/C=C/c1ccc(Cl)cc1
    4%, -1.1%, 0%, 3
- COc1ccc(CN2CCN(Cc3cccc(F)c3)CC2)cc1OC
    -6%, 2.2%, 1%, nt
- COc1ccc(CC(=O)Nc2ccc(-c3nnc(-c4ccccc4)o3)cc2)cc1
    -9%, -2.8%, 20%, 3

A different layout for some results above.
COC(=O)c1cc(OC)c(OC)cc1NC(=O)CN1C(=O)c2ccccc2C1=O
  miR-21 reporter: -3%; Rango complex inh: -1.2%; Rango release inh: 0%; GLA inh pH 4.5: nt

O=c1c2ccccc2c(-c2ccc(Br)cc2)nn1Cc1ccccc1
  miR-21 reporter: -2%; Rango complex inh: 0.3%; Rango release inh: 0%; GLA inh pH 4.5: -4

O=C(CN1CCN(c2ncccn2)CC1)NCCC1=CCCCC1
  miR-21 reporter: -21%; Rango complex inh: 4.1%; Rango release inh: -12%; GLA inh pH 4.5: -9

(cont.)
Under each structure – miR-21 reporter, Rango complex inh, Rango release inh, GLA inh pH 4.5
- COc1cnc(-c2ccccn2)nc1Oc1ccc(C(C)(C)C)cc1
    ?, -1.5%, 1%, nt
- CC(C)c1ccc(C2/C(=C(/O)c3ccccc3)C(=O)C(=O)N2CCCN2CCOCC2)cc1 (stereo not given)
    0%, 1.5%, 13%, nt
- CC(CCc1ccccc1)NC(=O)C(Cc1ccccc1)NC(N)=O (stereo not given)
    0%, 0.3%, 1%, nt
- CCC(C)NC(=O)c1ccc(N2CC3CC(C2)c2cccc(=O)n2C3)c(NC(=O)c2ccc(Br)o2)c1 (stereo not given)
    -4%, -0.7%, 11%, nt
- COC(=O)C1CCN(C(c2cccs2)c2sc3nc(C)nn3c2O)CC1 (stereo not given)
    -4%, -1.0%, 9%, -1
- O=C1CC(NS(=O)(=O)c2cc(F)ccc2F)CN1c1cccc(F)c1 (stereo not given)
    nt, 4.2%, 5%, nt
- O=C(Oc1ccccc1)Oc1ccc2c(c1)oc(=O)c1ccccc12
    -19%, ?, ?, 6
- CCOC(=O)C1CCCN(S(=O)(=O)c2ccc3c(c2)CC(C)N3C(=O)C2CC2)C1 (stereo not given)
    13%, -0.1%, 0%, nt
- CCCCC1(C)NC(=O)N(CC(=O)Nc2cc(S(=O)(=O)N3CCOCC3)ccc2Cl)C1=O (stereo not given)
    nt, -1.5%, -18%, nt
- O=C(c1ccc(F)cc1)N1CCC(C(=O)N2CCN(Cc3ccc4c(c3)OCO4)CC2)CC1
    nt, 0.0%, -3%, nt
- CC1(C)C(=O)Nc2ccccc2N1C(=O)COC(=O)CSc1ccc(F)cc1
    nt, -0.7%, -17%, nt
- CCc1ccc(NC(=O)c2cnn(-c3ccccc3)c2C2CCNCC2)cc1
    6%, 1.9%, -19%, -2
- Cc1ccc(N(CC(=O)NCCSc2nc3ccccc3s2)S(=O)(=O)c2ccccc2)c(C)c1
    2%, ?, -5%, -11
- O=c1ccsc2ccccc12
    nt, -3.2%, -1%, nt
- Cn1cc(Br)c(C(=O)NN2C(=O)C3C4C=CC(C5CC45)C3C2=O)n1 (stereo not given)
    0%, 4.0%, 4%, 6
- N/C(=N\OC(=O)c1cccc(Br)c1)c1ccccc1
    -54%, -0.9%, 15%, 7
- CN1C(=O)NC(c2ccc(C(F)(F)F)cc2)C2=C1CC(C)(C)CC2=O (stereo not given)
    2%, 1.0%, 4%, nt
- CCn1ncc(NC(=S)NCCc2ccc(OC)c(OC)c2)c1C(N)=O
    -4%, 6.3%, -6%, 5
- O=[N+]([O-])c1ccccc1S(=O)(=O)Nc1cccc(S(=O)(=O)N2CCCC2)c1
    nt, -0.8%, 7%, nt
- CCn1ccc(C(=O)Nc2sc3c(c2C(=O)OC)CCC3)n1
    -7%, -0.5%, 1%, nt
- CCS(=O)(=O)N1CCCC(C(=O)NCCCOC(C)C)C1 (stereo not given)
    -3%, -1.4%, -17%, 15
- Cc1ccccc1CSc1nccn1-c1ccccc1
    -8%, 11%, -17%, 4
- Cc1ccc(C)c(OCC(=O)O/N=C(\N)c2ccccn2)c1
    -52%, ?, 2%, 0
- CCOC(=O)c1cc2sc(C)cc2n1CC(=O)NCCc1ccccc1
    0%, 5.5%, ?, -4
- O=C(Nc1ccc(C(=O)N2CCC(N3CCCC3)CC2)cc1)c1ccc(Br)o1
    nt, -2.8%, -2%, nt
- CCOc1ccccc1Nc1ccc(C(=O)O)cc1N
    -8%, -6.0%, -7%, nt
- COc1cc(-c2nn3c(COc4ccccc4)nnc3s2)cc(OC)c1OC
    -7%, 2.5%, 3%, 6
- Cc1cccc(NC(=O)CCNS(=O)(=O)c2cccc3nonc23)c1
    -3%&3%, 1.6%, -7%, 2
